Mtb hypoxia inh: Mtb hypoxia fluorescent reporter inhibition; AID 1159583; actives 0.1% (n = 300,000); fluorescence inhibition, % (no concentration beside the values); M. tuberculosis hypoxia-regulated fluorescent reporter, fluorescence;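 active = 35 to 45% if threefold the growth effect, above 45% if 1.5-fold the growth effect; inactive = the rest, general growth blockers included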;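 note: wells of about 50 µL received 100 nL stock; 0% = vehicle wells and 100% = reference inhibitor wells; whole bacteria with a GFP reporter of the hypoxia response; strong numbers were not always called active; many hits fall short of the cut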
Bead autofluor: flagged as autofluorescent in microsphere protease counterscreen | compound autofluorescence counterscreen, microsphere flow cytometry; hits give high values | fluorescence intensity (test concentration not listed) | actives 3.1% (n = 360,000);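 active = at least 3 SD above the mean of all compounds, about 16000 in these data; inconclusive = too few beads counted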;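 note: 100 nL of 1 mM stock went into each well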
PrP UTR inh: inhibition of PrP 5' UTR reporter expression; cell-based PrP 5' UTR mRNA reporter, plate reader; inhibition, % (no concentration beside the values); actives 0.35% (n = 340,000); AID 488862;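 active = every replicate at 50% or more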;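 note: 0 = median of the neutral control wells; tested in H4 reporter cells; numbers are from one replicate; inactives centre near -14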
BJeLR lethal: BJeLR cell viability loss | BJeLR (HRASV12) viability, CellTiter-Glo ATP luminescence, 48 h; reference of the scale not given here | inhibition, % (concentration not given with the values) | actives 0.17% (n = 300,000) | AID 1554;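 active = replicate mean above 50%; inconclusive = above 50% but judged a plate artefact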;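 note: 50 nL library stock added to about 25 µL; numbers are from one replicate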
Sa RN4220 lethal: kills Staphylococcus aureus RN4220 | S. aureus RN4220 growth, OD600, 16 h | inhibition, % (no concentration beside the values) | actives 0.33% (n = 330,000);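 active = z-score of -3 or lower and OD600 up to 0.18 on both plates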;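 note: plate controls were untreated cells for no effect and reference antibiotic for full effect; stock transfer was 100 nL into about 80 µL; one replicate is shown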
ugtP null kill: kills S. aureus RN4220 lacking UgtP; S. aureus RN4220 ugtP deletion, OD600 growth, 16 h; some inactives read as strong as hits; growth inhibition, % (concentration not given with the values); AID 1259309; actives 0.54% (n = 330,000);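 active = z-score under -3 and OD600 up to 0.15 on both plates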;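 note: plate controls were untreated wells for no effect and antibiotic for full effect; wells of about 80 µL received 100 nL stock; the first replicate is given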
Mtb hypoxia inh growth: further read-out of Mtb hypoxia inh, marked with its call; growth inhibition, %; measured here: M. tuberculosis growth (absorbance);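 0% = vehicle and 100% = reference antibiotic; read after six days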
* marks the source's active call; other numbers are inactive results; ? = inconclusive; . = not tested or not shown.

SMILES	Mtb hypoxia inh	Mtb hypoxia inh growth	Bead autofluor	PrP UTR inh	BJeLR lethal	Sa RN4220 lethal	ugtP null kill
Cc1cc(NS(=O)(=O)c2ccc(NC(=O)C(CC(C)C)N3C(=O)c4ccccc4C3=O)cc2)nc(C)n1 (centres undefined)	-0.4	-3.6	4028	-6.4	-0.8	-0.3	4.5
Cc1csc(NC(=O)C2CCCN(S(=O)(=O)c3ccc(Br)s3)C2)n1 (centres undefined)	.	.	2760	8.3	3.6	-3.1	-7.5
Cc1cc(=O)n(CC=C(Cl)Cl)c2ccccc12	4.0	2.6	4152	-9.2	2.6	1.9	-2.9
Cc1ccc(S(=O)(=O)N2CCC(C(=O)OCc3c(C)noc3C)CC2)cc1C	3.9	0.0	.	-7.1	-3.9	4.9	3.8
C=CC[N+]1(CC#CCOC(c2ccccc2)c2ccccc2)CCOCC1	6.9	1.0	10951	-11.9	-2.2	0.7	10.3
Cc1cc(C(=O)NN=Cc2c(C)nn(-c3ccccc3)c2C)n[nH]1	2.4	6.0	.	.	.	0.0	-2.6
O=C(COC(=O)CSc1ccc(Cl)cc1)Nc1ccc2[nH]c(=O)[nH]c2c1	1.6	-6.8	2940	4.6	.	-0.6	-6.4
Nc1cc(=O)n(Cc2ccccc2)c(=O)n1-c1ccc(Cl)cc1	9.5	4.5	4445	-17.4	-4.4	2.8	5.7
O=C(CCNC(=O)c1ccc(Cl)cc1)Nc1nc2ccccc2[nH]1	9.5	0.1	.	-20.7	.	6.9	7.5
O=C(NCc1ccco1)C(c1ccccc1)N(C(=O)Cc1cccs1)c1ccccc1 (centres undefined)	.	.	.	-16.0	-37.1	1.5	-1.8
CC(C)(C)c1ccc(NC(=O)C(=O)C2C(=O)Nc3ccccc32)cc1 (centres undefined)	1.5	9.8	3208	-13.8	0.3	-4.2	1.4
Cc1ccc(N=Nc2ccc(C)cc2NC(=O)Nc2ccccc2F)cc1	-0.2	-8.8	3416	-5.5	2.5	0.3	1.1
Cc1ccc(-n2nnc(-c3nccn3C)n2)cc1	6.0	-3.4	3692	27.9	-7.1	2.3	2.7
Nc1nc(Nc2ccccc2Cl)cc(=O)[nH]1	7.3	10.6	3561	-27.4	-17.6	3.6	2.0
COc1ccc(/C=N/Nc2nc(=O)[nH]nc2C)cc1[N+](=O)[O-]	.	.	2587	-11.1	-9.4	.	.
O=C(CSc1ncn[nH]1)Nc1ccccc1Sc1ccc(Cl)cc1	4.5	0.5	3102	-1.0	-2.7	-5.9	-2.5
COC(=O)c1ccc(NC(=O)C(=O)N2CCN(C(=S)NCCc3ccccc3)CC2)cc1	7.8	4.0	2118	0.4	-0.1	1.9	1.5
CCCOc1cccc(C2C(C(=O)c3ccco3)=C(O)C(=O)N2CCN(CC)CC)c1 (centres undefined)	-5.5	3.2	9027	-4.2	1.1	-1.3	-1.1
COc1ccccc1NC(=O)CON=C(N)CC(=O)NC1CCCCC1	-5.3	-1.3	3356	-14.4	.	-2.6	1.9
O=C(O)CC(CC(=O)N1CCOCC1)c1ccccc1 (centres undefined)	13.5	2.6	3874	-22.5	1.7	2.7	1.9
CCOC(=O)C1C2COc3ccc(Cl)cc3C2N2C(=O)c3ccc(F)cc3NC(=O)[C@@]12C (some centres undefined)	1.5	7.6	.	.	.	-4.8	-31.7
Cc1ccc([N+](=O)[O-])cc1S(=O)(=O)Nc1ccc(C(=O)N2CCN(C(=O)c3ccco3)CC2)cc1	11.7	1.5	2932	-0.5	.	5.9	2.8
CC1CN(C2CCCCC2)C(=S)NC1=O (centres undefined)	20.4	14.9	3923	-22.8	.	2.7	7.0
Cc1cccc(C(=S)N2CCOCC2)n1	-4.4	4.2	4147	-3.1	.	-3.2	-6.1
CCc1ccc(NC(=O)C(=O)N/N=C(\C)CC(=O)NCCOC)cc1	.	.	4249	-15.7	-2.9	.	.

A stretch taken from the entries so far:
SMILES	Mtb hypoxia inh	Mtb hypoxia inh growth	Bead autofluor	PrP UTR inh	BJeLR lethal	Sa RN4220 lethal	ugtP null kill
Cc1cc(NS(=O)(=O)c2ccc(NC(=O)C(CC(C)C)N3C(=O)c4ccccc4C3=O)cc2)nc(C)n1 (centres undefined)	-0.4	-3.6	4028	-6.4	-0.8	-0.3	4.5
Cc1csc(NC(=O)C2CCCN(S(=O)(=O)c3ccc(Br)s3)C2)n1 (centres undefined)	.	.	2760	8.3	3.6	-3.1	-7.5
Cc1cc(=O)n(CC=C(Cl)Cl)c2ccccc12	4.0	2.6	4152	-9.2	2.6	1.9	-2.9

Following part.
SMILES	Mtb hypoxia inh	Mtb hypoxia inh growth	Bead autofluor	PrP UTR inh	BJeLR lethal	Sa RN4220 lethal	ugtP null kill
CCCCc1nc2cc(C(=O)NCc3cn(C)nc3C)ccc2o1	4.3	4.9	5514	-27.9	12.9	3.9	0.0
C/C(C=Nn1c(-c2ccc(C)cc2)n[nH]c1=S)=C\c1ccco1	1.8	19.1	.	.	.	7.4	2.3
Cn1c(NNC(=O)c2ccccc2F)cc(=O)n(C)c1=O	-6.1	1.2	4047	-12.3	2.6	1.1	5.5
COc1ccc(S(=O)(=O)N2CCN(CC(=O)Nc3cccc(F)c3)CC2)cc1	.	.	2658	-13.1	0.0	2.0	3.6
COCCN1C(=O)c2ccccc2C(C(=O)NCCN(C)C)C1c1ccc(F)cc1 (centres undefined)	0.7	0.5	6554	-14.4	-22.6	9.0	13.3
Cc1ccc(Nc2n[nH]c(C)c2[N+](=O)[O-])cc1	10.0	10.7	2480	-63.5	-0.1	2.9	-3.4
CCOC(=O)c1[nH]ncc1CN1CCCC(C(=O)c2cc(Cl)ccc2OC)C1 (centres undefined)	5.0	10.4	2272	-26.0	-8.9	-3.3	-4.3
Cc1ccc(-n2[nH]c(C)c(C=Nc3ccc4[nH]c(=O)[nH]c4c3)c2=O)cc1C	.	.	2075	-6.0	28.5	-0.5	8.5
O=C(Nc1ccc(-c2nnc(-c3ccco3)o2)cc1)C(c1ccccc1)c1ccccc1	-1.8	5.0	3128	-9.0	-4.2	5.1	-16.6
CCOC(=O)c1sc(NN=Cc2ccccc2)nc1C	1.5	6.1	.	.	.	-0.2	13.6
CCN(CC)c1cc(Cl)nc(N)n1	4.7	5.5	4122	-12.0	6.3	4.8	-3.7
CCNC(=O)NC(=O)C(C)OC(=O)Cc1coc2cc3c(cc12)CCC3 (centres undefined)	5.2	3.9	4232	-26.9	-2.0	1.5	4.4
CC(C)(C)N(NC(=O)OCc1ccccc1)C(=O)c1ccccc1Cl	4.7	9.1	2540	-41.3	5.9	6.8	-3.4
CC(C)Cn1c(SCC#N)nc2ccccc2c1=O	.	.	3201	-11.6	-3.2	0.5	3.0
COc1ccc(CC(=O)N2CCN(c3ccccc3F)CC2)cc1OC	.	.	4253	8.7	6.0	.	.
Cc1ccc(NC(=O)C2CCN(C(=O)[C@@H]3Cc4ccccc4CN3)CC2)c(C)c1	17.4	3.8	5860	0.9	3.9	-1.9	4.3
O=C(O)c1[nH]c2ccc(Br)cc2c1CCN1C(=O)c2cccc([N+](=O)[O-])c2C1=O	7.1	6.9	3231	-3.4	6.0	0.5	0.0
NS(=O)(=O)c1cccnc1Nc1c(Cl)cccc1Cl	.	.	2332	-14.5	-2.9	-0.9	3.1
Cc1ccc(S(=O)(=O)N/N=C\C=C\c2ccccc2)cc1	.	.	7939	-0.2	-1.9	.	.
C#CCOCCOCCOCCNc1nc(N2CCN(C(=O)C([C@@H](C)CC)n3cc(C(N)Cc4ccc(O)cc4)nn3)CC2)nc(N2CCN(C(=O)[C@H](CCC(=O)O)n3cc(C(N)Cc4ccc(O)cc4)nn3)CC2)n1 (some centres undefined)	.	.	4191	-30.8	-0.5	.	.
CCCc1cc(=O)oc2cc(OCC(=O)N3CCOCC3)c(Cl)cc12	4.9	-2.3	3932	2.6	3.6	-0.3	-0.6
Cc1ccc(NC(=O)Nc2cnccn2)c(C)c1	9.0	-4.9	?	-22.4	-1.8	1.7	6.8
CCc1ccc(OCC(=O)N2CCN(Cc3ccc4c(c3)OCO4)CC2)cc1	1.0	5.7	4080	-6.1	-10.7	5.9	3.5
CCN(CC)C(=O)C1CCCN(c2ccc([N+](=O)[O-])cc2/C=N/NC(=O)c2ccccc2)C1 (centres undefined)	.	.	2546	-9.4	0.2	.	.
Cc1onc(-c2c(F)cccc2Cl)c1C(=O)NCc1ccc(S(N)(=O)=O)cc1	20.5	7.0	3619	-23.2	.	3.9	1.4

Two of the compounds above, as comma-separated lines:
SMILES,Mtb hypoxia inh,Mtb hypoxia inh growth,Bead autofluor,PrP UTR inh,BJeLR lethal,Sa RN4220 lethal,ugtP null kill
CC(C)Cn1c(SCC#N)nc2ccccc2c1=O,.,.,3201,-11.6,-3.2,0.5,3.0
CCCc1cc(=O)oc2cc(OCC(=O)N3CCOCC3)c(Cl)cc12,4.9,-2.3,3932,2.6,3.6,-0.3,-0.6

Later entries:
SMILES	Mtb hypoxia inh	Mtb hypoxia inh growth	Bead autofluor	PrP UTR inh	BJeLR lethal	Sa RN4220 lethal	ugtP null kill
Cc1ccnc(NS(=O)(=O)c2ccccc2)c1	13.6	1.0	3915	-27.0	16.6	6.5	13.2
CC(=O)c1ccc(C(=O)N2CCc3c([nH]c4ccccc34)C2c2cccc(C)n2)s1 (centres undefined)	-5.0	7.3	5045	-2.4	0.0	4.4	13.0
O=C(CC1CCCC1)NCCc1cn2ccccc2n1	3.5	-2.9	5510	-21.8	-5.7	0.6	-2.7
O=C(NCCCCCCNC(=O)OCCO)OCCO	-9.3	-6.4	4578	-24.1	2.5	2.1	4.0
Cc1ccc(NC(=O)Cn2c(CCC(=O)O)ccc2-c2cccs2)cc1Cl	-7.4	4.6	4766	21.4	-1.3	3.4	-12.3
CSC1=C(C#N)C(CC(C)C)C2=C(CCCC2=O)N1 (centres undefined)	-6.2	-2.7	3392	-13.9	-2.5	10.3	6.4
COc1ccccc1N1CCN(CC(=O)Nc2ccccc2C(=O)NC(C)c2ccccc2)CC1 (centres undefined)	-5.5	-2.7	4077	-3.3	.	-2.9	-6.0
CCOC(=O)C1=C(O)C(=O)N(c2ccc(S(N)(=O)=O)cc2)C1c1ccccc1 (centres undefined)	.	.	4085	-8.5	0.7	-0.6	-9.5
CCOC(=O)c1c(NC(=O)COC(=O)c2ccccc2NC)sc(C(=O)N(C)C)c1C	0.6	9.7	4811	-18.3	-1.7	-1.6	-10.4
Cc1ccc(SCC(=O)NC(C)c2ccccc2)cc1 (centres undefined)	8.7	9.4	3957	-16.2	2.2	-0.8	7.2
COC(=O)CSC1=NP(=S)(SCC(=O)OC)N2CCCC2=C1C#N (centres undefined)	.	.	3231	-16.6	9.2	1.0	1.9
CCO[C@H]1OC(C(=O)NC2CC2)=C[C@@H](c2c[nH]c3ccccc23)[C@@H]1CCCO	.	.	3463	-16.4	-4.9	.	.
CC(=O)Nc1ccc(NC(=S)NC(=O)c2ccc([N+](=O)[O-])cc2)cc1	-3.6	-2.6	6985	-23.3	3.0	-7.0	16.9
CC(=NNc1ccc(Cl)cc1)c1ccccn1	-2.7	6.0	.	.	.	-5.2	-29.5
CN1CCCC(C(=O)c2ccc(-c3ccccc3)cc2)C1 (centres undefined)	5.5	7.0	3318	-44.5	3.4	2.2	54.3
CNC(=S)NNC(=O)c1sccc1OCc1ccccc1	-6.7	-0.3	22279*	-0.1	-3.3	-0.4	-2.3
COC(=O)c1ccsc1NC(=O)CN1CCN(Cc2ccc3c(c2)OCO3)CC1	-0.9	10.4	21667*	7.9	12.0	3.1	1.3
CC1CN(C(=O)CCN2C(=O)c3ccccc3C2=O)CC(C)O1 (centres undefined)	.	.	4121	-14.0	-3.2	3.2	-2.3
CC1NC(=O)c2cc([N+](=O)[O-])cc(I)c2OCCC(C(N)=O)NC(=O)C(CCCCN)NC1=O (centres undefined)	17.9	8.5	.	.	.	5.5	-2.4
COc1ccc(CCNC(=O)CSc2ncnc3c2oc2ccccc23)cc1OC	.	.	3589	-0.7	1.3	4.9	-5.0
O=S(=O)(c1cccc(-c2nnc3n2CCCCC3)c1)N1CCOCC1	7.5	-3.6	5013	-27.2	-7.4	1.5	-0.1
Cc1ccc(C2(c3noc(CN4CCOCC4)n3)CCCC2)cc1	-2.4	-5.5	3488	-1.7	6.0	5.2	-5.4
Cc1cccc(C)c1NC(=O)C[n+]1cc(-c2ccccc2)n2c1CCC2	0.3	5.9	4219	-19.1	1.9	1.1	12.5
CCC/C=N/NC(=O)CNC(=O)c1ccccc1Cl	.	.	2894	-2.8	-10.1	.	.

Assay outcomes (PubChem BioAssay)
